FGF22 binding – FGF22 (human) thermal shift binding; Q9HCT0; recombinant FGF22 thermal shift, SYPRO orange fluorescence; percent of sucrose octasulfate shift, DMSO zero; actives 1.5% (n = 340,000); calls only at 9.99 µM;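 active = melting point raised past a set limit in the mean and every replicate; three in four hits are not shown here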
Target sequence (Q9HCT0 whole entry, looked up): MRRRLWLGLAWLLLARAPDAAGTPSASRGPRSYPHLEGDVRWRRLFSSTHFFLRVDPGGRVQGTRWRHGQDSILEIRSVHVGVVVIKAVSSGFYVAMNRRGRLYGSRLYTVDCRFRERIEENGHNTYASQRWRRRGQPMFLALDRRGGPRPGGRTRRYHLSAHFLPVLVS
E coli growth – blocks Escherichia coli growth; OD600, 23 h; active compounds read low; OD600 absorbance (no concentration beside the values); actives 0.21% (n = 330,000);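 active = OD600 absorbance below the run mean of sample wells minus 3.6 SD, in any replicate, cut at about 0.56 in these data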;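 note: stock transfer was 300 nL into about 60 µL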
HNF4A DNA FP – change in binding of human HNF4 alpha to DNA. P41235. HNF4a-FITC DNA binding, fluorescence polarization, 1 h. activity change, % at 10 µM. actives 0.3% (n = 360,000). AID 1224865; in the data active = activity change above about 30%, passing the limit was not always enough;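 note: controls were the assay level and a saturating level of protein; the project sought stronger binding though the title names inhibitors; some compounds called inactive have numbers as strong as hits; positive values seem to mean higher polarization but the record does not say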
Target sequence (P41235 whole entry, looked up): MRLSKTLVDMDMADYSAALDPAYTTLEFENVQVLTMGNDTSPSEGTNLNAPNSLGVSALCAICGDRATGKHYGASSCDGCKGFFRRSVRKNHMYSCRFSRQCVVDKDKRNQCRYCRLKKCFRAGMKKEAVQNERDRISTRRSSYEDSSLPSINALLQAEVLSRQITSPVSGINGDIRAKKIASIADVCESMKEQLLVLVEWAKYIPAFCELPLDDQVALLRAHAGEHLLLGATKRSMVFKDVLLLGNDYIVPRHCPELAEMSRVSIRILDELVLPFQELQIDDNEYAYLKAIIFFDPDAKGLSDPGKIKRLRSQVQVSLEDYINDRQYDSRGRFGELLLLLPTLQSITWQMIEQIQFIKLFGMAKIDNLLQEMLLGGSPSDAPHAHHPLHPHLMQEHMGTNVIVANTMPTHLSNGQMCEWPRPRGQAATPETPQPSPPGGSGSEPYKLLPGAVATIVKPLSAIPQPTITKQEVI
rRNA inh HTS – inhibitors of bacterial rRNA selective over humanized ribosomes; AID 720706; GFP signal change (wild-type ribosome), % (test concentration not listed); E. coli WT GFP vs humanized-ribosome RFP mutants, fluorescence, 24 h; active compounds read low; DMSO median 0, no signal -100; actives 1.6% (n = 350,000);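 active = significant combined selectivity score with lowered wild-type GFP, culture density cut under 30%, mutant RFP and density less affected; inactive = any of these conditions unmet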; note: one replicate is shown; some compounds called inactive have numbers as strong as hits
B2AR ag – agonists of human beta-2 adrenergic receptor inducing internalization; P07550; Am2.2-beta2AR cells, FAP receptor internalization, flow cytometry; reference of the scale not given here; response, % (test concentration not listed); actives 0.43% (n = 340,000); AID 504454;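 active = response above a set limit, near 3 SD of response in nonfluorescent compounds, cut at about 42% in these data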;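 note: stock transfer was 100 nL into about 11 µL; a reference agonist was the positive control; negative values mostly stem from fluorescent compounds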
ALR inh – inhibitors of human sulfhydryl oxidase ALR; purified ALR, DTT oxidation, H2O2 HRP-luminol luminescence; inhibition, % (concentration not given with the values); actives 3.8% (n = 290,000); AID 485317;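 active = mean and each replicate at 75% or more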;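 note: stock transfer was 7.5 nL into about 7.5 µL; 0% = neutral wells and 100% = wells with inactivated enzyme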
Target sequence (P55789 whole entry, looked up): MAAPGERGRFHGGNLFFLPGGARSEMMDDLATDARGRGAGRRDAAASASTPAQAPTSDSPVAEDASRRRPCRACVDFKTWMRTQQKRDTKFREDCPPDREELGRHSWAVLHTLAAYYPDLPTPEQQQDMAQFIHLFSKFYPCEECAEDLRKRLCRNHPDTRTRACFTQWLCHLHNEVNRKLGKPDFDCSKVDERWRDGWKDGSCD
UCH37 inh – human UCH37 deubiquitinating enzyme inhibition. actives 0.33% (n = 330,000). AID 588478. purified proteasome/UCH37, Ub-AMC cleavage fluorescence. inhibition, % (concentration not given with the values). Q9Y5K5;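 active = mean of two replicates above 20%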;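 note: 0% = compound-free wells with enzyme and 100% = wells lacking proteasome; stock transfer was 100 nL into about 20 µL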
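Assay system: Proteasome-bound UCH37. Buffer or medium: pH 7.4 Tris-HCl (50 mM) with ovalbumin, ATP-MgCl2, DTT. Incubation: 30 min preincubation with enzyme, 25 min cleavage at room temperature. Measured by: fluorescence, ex 355 nm, em 460 nm. Read-out basis: percent inhibition. Control set: wells without proteasome as full block, compound-free enzyme plus substrate as uninhibited.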
rRNA inh HTS OD600 – second read-out of rRNA inh HTS, no call of its own (marks repeat the call); OD600 change, %; measured here: OD600 growth;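 optical density of the mix in the first replicate; 0 = DMSO median and -100 = no signal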
rRNA inh HTS RFP – further read-out of rRNA inh HTS, marked with its call; RFP signal change, %; measured here: RFP humanized mutant strains;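 first replicate; 0 = DMSO median and -100 = no signal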
Active calls of the source: *; i = inactive; · = not tested or not shown.

Order of values: rRNA inh HTS | B2AR ag | FGF22 binding | rRNA inh HTS RFP | rRNA inh HTS OD600 | UCH37 inh | E coli growth | ALR inh | HNF4A DNA FP
CC(=O)N1CCN(c2ccc(NC(=O)c3ccc4c(c3)OCO4)cc2)CC1
    · | -1 | · | · | · | 2.3 | 0.66 | · | -2.5
CCc1ccc(Nc2cnn(C34CC5CC(CC(CC(=O)O)(C5)C3)C4)c(=O)c2Cl)cc1
    -27* | 1 | i | -9.3* | -19* | 13 | 0.76 | -1 | -1.2
CCOC(=O)[C@@H]1[C@H]2COc3cc(OC)ccc3[C@H]2N2C(=O)N(c3ccc(C(F)(F)F)cc3)C(=O)[C@]12C
    -49 | 2 | i | -25 | -82 | · | · | 9 | 1.9
CCn1c2ccccc2c2nnc(SCC(=O)Nc3cc(C)on3)nc21
    · | 11 | · | · | · | -4.1 | 0.64 | -8 | 0.3
Oc1ccccc1CNCCCNCc1ccccc1O
    · | 6 | · | · | · | -0.7 | 0.7 | · | 9.0
CN(C)S(=O)(=O)c1cccc(-c2nnc(-c3ccccc3)o2)c1
    -19 | 17 | i | -3.2 | -19 | 3.0 | 0.71 | 10 | -1.6
O=C(Cn1cnc2c(cnn2-c2ccc(Cl)cc2)c1=O)NCCc1ccccc1
    · | -11 | · | · | · | 5.6 | 0.75 | 0 | 0.7
COC(=O)CN1C(=O)[C@H]2[C@@H](/C=C/c3ccccc3)N3C(=O)CN(Cc4ccccc4)C(=O)[C@@]3(Cc3ccccc3)[C@H]2C1=O
    -6 | 10 | i | 0.8 | 1 | 3.5 | · | -5 | 1.6
O=C(COc1ccc(Br)cc1Br)NC(=S)N1CCCc2ccccc21
    · | -3 | · | · | · | 3.6 | 0.68 | 93* | -1.2
Cc1ccc(C)c(S(=O)(=O)C(C#N)c2nc3ccccc3nc2N2CC(C)OC(C)C2)c1 (stereo not drawn)
    · | 5 | · | · | · | -4.1 | 0.67 | 59 | -0.5
CC1(C)NC(=O)N(CC(O)COc2ccccc2C(=O)Nc2ccccc2)C1=O (stereo not drawn)
    · | -11 | · | · | · | 4.8 | 0.71 | -12 | -2.4
Cc1noc(C)c1COc1ccc(C(=O)N2CCN(c3ccccn3)CC2)cc1
    -7 | 1 | i | -1.5 | -9 | -0.9 | 0.63 | -17 | 3.3
COC(=O)C1=CN(c2ccccc2OC)C(N)=C(C#N)C1c1cccc([N+](=O)[O-])c1 (stereo not drawn)
    -15 | · | i | 3.8 | -6 | · | · | · | -2.6
C[C@@H]1CCC2[C@](C)(CO)[C@@H](O)CC[C@]2(C)[C@@]12C[C@](CO)(CC(=O)O)CO2 (stereo partly drawn)
    7 | 8 | i | 18 | 13 | 1.5 | 0.65 | -6 | 1.1
COc1ccc(-n2sc3ccc(F)cc3c2=O)cc1
    -34 | 2 | i | -10 | -49 | 3.9 | · | 6 | 4.4
CC1CC(C)CN(C(=O)CSc2nnc(-c3ccc(F)cc3)o2)C1 (stereo not drawn)
    0 | -14 | i | 0.0 | 1 | 2.2 | 0.77 | -5 | 0.7
N#CC(Cc1ccccc1OC(F)F)c1nc2ccccc2[nH]1 (stereo not drawn)
    -4 | -24 | i | -13 | -9 | -5.1 | 0.69 | 14 | 0.0
CCCOc1cccc(C(=O)Nc2ccc(CN3CCOCC3)cc2)c1
    -7 | -9 | i | -2.4 | -5 | 3.3 | 0.67 | -7 | -1.7
Cc1cc(=O)[nH]c(-c2ccc(Cl)cc2)n1
    · | 1 | i | · | · | 6.1 | 0.62 | 0 | 3.0
O=c1c2ccccc2cnn1-c1ccc(Br)cc1
    · | 3 | · | · | · | 0.8 | 0.77 | -2 | -0.6
Cc1ccc2[nH]c(-c3ccccc3)c(CN3CCOCC3)c(=O)c2c1
    · | 4 | · | · | · | -0.2 | 0.75 | 1 | -0.1
O=C(COC(=O)C1CCCC1)NCc1ccc(Cl)cc1
    1 | 3 | · | 1.9 | 2 | 0.2 | 0.67 | 0 | -1.2
COc1ccc(CNC(=O)COc2cc3c(c4oc(=O)cc(C)c24)CCC(C)(C)O3)cc1OC
    -29 | 3 | i | -4.0 | -24 | -86 | 0.73 | -17 | 3.1
Cc1cc(Cl)nc(NC(=O)Nc2cccc(Cl)c2)n1
    8 | 5 | i | -1.1 | 10 | 3.9 | 0.69 | · | 1.2
COc1ccc(-c2nc3ccc(Cl)cn3c2CC(C)(C)C)cc1OC
    4 | · | i | 0.4 | 2 | · | · | · | 7.0
COc1ccccc1NC(=O)C1CCCN(c2cnccn2)C1 (stereo not drawn)
    3 | 5 | i | -2.9 | 6 | -13 | 0.72 | 5 | 0.6
c1ccc(Cc2nnc3n2CCCCC3)cc1
    · | -3 | · | · | · | 2.2 | 0.68 | -1 | 0.8
CCOC(=O)C(NC(=O)Cc1ccccc1)(Nc1cc(C)on1)C(F)(F)F (stereo not drawn)
    · | 1 | · | · | · | 0.5 | 0.7 | · | -0.5
O=S(=O)(NC1Cc2ccccc2C1)c1ccccc1
    0 | 1 | i | 0.7 | -2 | -1.3 | 0.66 | -6 | 2.4
COC(=O)C1CCN(S(=O)(=O)c2c[nH]c(=O)[nH]c2=O)CC1
    12 | · | i | 1.7 | 17 | · | · | · | -3.4
CCOC(=O)CNC(=O)CSc1ncnc2c1nnn2-c1ccc(F)cc1
    · | 7 | · | · | · | 3.9 | 0.75 | -2 | -0.7
CCOc1ccc(S(=O)(=O)NCCC(=O)N(C)CC(=O)Nc2ccc(N3CCOCC3)cc2)cc1
    7 | 2 | · | 2.0 | 4 | · | · | 23 | 1.2
CCCC(=O)N1CCCC1(C)C(=O)NCCc1ccccn1 (stereo not drawn)
    9 | · | i | 1.0 | 9 | · | · | · | -3.5
COc1ccc(CNS(=O)(=O)c2ccc3oc(C(=O)O)c(C)c3c2)cc1
    -7 | 1 | i | -4.2 | -3 | 0.5 | 0.69 | · | 0.7
C[C@H](NC(=O)c1ccco1)C(=O)NCc1cccs1
    · | 0 | i | · | · | -1.7 | 0.72 | · | 4.2
O=C(O)c1ccc2nnn(O)c2c1
    15 | -2 | i | -4.2 | 11 | 4.2 | 0.68 | · | 2.9
O=C(Nc1ccc(N2C(=O)C3C4C=CC(C4)C3C2=O)cc1Cl)c1cccs1 (stereo not drawn)
    17 | -2 | · | 1.7 | 7 | 4.5 | 0.65 | -7 | 3.0
O=C1CCc2cc(S(=O)(=O)NC(C(=O)NCc3cccnc3)c3ccccc3)ccc2N1 (stereo not drawn)
    5 | -1 | i | -0.1 | 2 | 3.9 | 0.78 | · | -4.0
Cc1sc2ncn(CC(=O)NCCCC(=O)N3CCN(Cc4ccc5c(c4)OCO5)CC3)c(=O)c2c1C
    17 | -2 | i | 4.1 | 0 | 4.9 | 0.69 | -5 | 2.5
O=C(c1ccc(N2CCCCS2(=O)=O)cc1)N1CCN(c2ccccc2F)CC1
    1 | 6 | i | 0.0 | 1 | -2.6 | 0.65 | 0 | 3.7
CSc1ncc(CN2CCCC(C(=O)c3ccc(C(C)(C)C)cc3)C2)cn1 (stereo not drawn)
    -34 | -4 | i | 6.3 | -64 | 1.2 | 0.7 | · | 0.3
Cn1cnnc1SCc1ccc(C(=O)N/N=C(/CCC(=O)O)c2ccc(C(C)(C)C)cc2)cc1
    1 | 4 | i | 2.1 | 2 | 4.4 | 0.69 | · | -1.1
Cc1cc2oc(C(=O)N(Cc3ccccc3)C3CCS(=O)(=O)C3)c(C)c2cc1C (stereo not drawn)
    -5 | · | i | 2.1 | -11 | 5.3 | 0.7 | -2 | 0.1
CCOC(=O)C(NS(=O)(=O)c1ccc(Br)cc1)C(C)C (stereo not drawn)
    -20 | -2 | i | 9.3 | -22 | -0.9 | 0.68 | -7 | 2.8
CC(C)(C)OC(=O)N[C@@H](Cc1ccccc1)c1nnc(S(=O)(=O)Cc2cccc(F)c2)o1
    · | · | · | · | · | -0.2 | 0.78 | 39 | ·

ALR inh: entries above that show a hit
Order of values: rRNA inh HTS | B2AR ag | FGF22 binding | rRNA inh HTS RFP | rRNA inh HTS OD600 | UCH37 inh | E coli growth | ALR inh | HNF4A DNA FP
O=C(COc1ccc(Br)cc1Br)NC(=S)N1CCCc2ccccc21
    · | -3 | · | · | · | 3.6 | 0.68 | 93* | -1.2

(more compounds)
Order of values: rRNA inh HTS | B2AR ag | FGF22 binding | rRNA inh HTS RFP | rRNA inh HTS OD600 | UCH37 inh | E coli growth | ALR inh | HNF4A DNA FP
CCc1ccccc1S(=O)(=O)Cc1ccc(C(=O)NC(C)C)o1
    0 | 6 | i | -0.2 | 1 | -1.2 | 0.72 | 7 | 2.1
O=C(COC(=O)c1ccc(O)cc1)NC(c1ccccc1)c1ccccc1
    -52 | -12 | i | -16 | -76 | 2.1 | 0.66 | -1 | 2.7
CC(C)C[C@@H](CN1CCC[C@@H]1CN1C(=S)NC[C@@H]1Cc1ccccc1)N1C[C@H](Cc2ccc(O)cc2)N(CC2CCCCC2)C1=S
    2 | · | i | -0.4 | 5 | · | · | · | 1.4
COc1ccc(C2/C=C\CN(S(=O)(=O)c3ccc(C)cc3)CC(=O)N2Cc2cccc(F)c2)cc1 (stereo not drawn)
    9 | 23 | i | 6.3 | 11 | 0.9 | 0.7 | · | -0.4
O=C(NC1CC2CCCC(C1)N2C(=S)NCCc1ccccc1)C1CC1 (stereo not drawn)
    0 | 12 | i | -2.8 | 0 | 3.6 | 0.64 | -1 | -1.4
CSc1ccc(CN2CCC(N3CC(C)OC(C)C3)CC2)cc1 (stereo not drawn)
    2 | 15 | i | -2.8 | 3 | -0.5 | 0.65 | 2 | -1.7
COc1ccc(S(=O)(=O)NCc2ccc(C)cc2)cc1
    · | 10 | · | · | · | 3.4 | 0.7 | -14 | 1.2
CC1CCN(S(=O)(=O)c2ccc(NC(=O)N3c4ccccc4Sc4ccccc43)cc2)CC1
    · | 6 | · | · | · | 1.7 | 0.71 | -41 | -2.3
COCCCNC(=O)c1ccc(-c2csc(C)n2)cc1
    2 | 8 | i | 0.8 | 0 | 1.4 | 0.67 | 18 | -5.1
O/N=C/c1ccc2cccc(OCc3ccccc3)c2n1
    -29* | 3 | i | -5.2* | -14* | · | · | -8 | 1.8
CCSc1nc2c(c(=O)n1-c1ccc(F)cc1)SCC2
    · | -13 | · | · | · | 3.7 | 0.72 | 5 | 0.6
Cc1c(C(=O)N2CCCCC2)c(S(=O)(=O)N2CCC(C)CC2)c(C)n1C
    15 | 7 | i | 11 | 1 | 0.3 | 0.69 | 0 | 6.0
O=C(CNC(=O)c1ccccc1F)NCCN1C(=O)S/C(=C\c2ccc3c(c2)OCO3)C1=O
    · | 1 | i | · | · | -1.1 | 0.66 | · | 3.1
COc1ccc(CC(=O)NNC(=O)c2ccccn2)cc1
    -1 | -5 | i | -3.1 | -8 | 0.0 | 0.65 | · | 0.4
CC(C)Cc1ccc(-c2cc3nc(NCCOc4ccccc4)ccn3n2)cc1
    0 | · | i | -2.2 | 1 | · | · | · | -1.2
COc1ccc(C(=O)NCc2nnc(SCC(=O)Nc3cc(C)on3)o2)cc1OC
    9 | 1 | i | 8.6 | 17 | 0.2 | 0.67 | 34 | 4.7

Source: PubChem (several laboratories)

A portion of the library. The share of hits here may be higher or lower than overall.
